CDC25B CDK2 inh: human CDC25B-CDK2/CyclinA binding inhibition. hit rate 0.72% among 94,000. P30305+P24941. AID 1259370. z-score (concentration not given with the values). HTRF CDC25B-CDK2/CyclinA binding, anti-His/anti-Flag; hits give high values;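 also: score is relative to mean and SD of negative controls; strong numbers were not always called active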
HIV TAR-Tat: HIV-1 TAR-Tat binding disruption. AID 1259389. hit rate 0.6% among 100,000. HIV-1 TAR RNA, Tat peptide displacement FRET; hits give high values. z-score (no concentration beside the values);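 also: score is relative to mean and SD of negative controls; some compounds called inactive have numbers as strong as hits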
Starred values were filed as active, the others as inactive; / = no result given.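 The calls were made as follows: active = z-score from 3 up in half or more of its runs; inactive = the rest.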

canonical_smiles | HIV TAR-Tat | CDC25B CDK2 inh
COc1ccc(CN2C(=O)c3oc4ccc(C)cc4c(=O)c3C2c2ccc(O)cc2)cc1 (stereo not drawn) | 0.38 | -0.35
O=C(c1ccco1)c1cn(CCOc2ccc(F)cc2)c2ccccc12 | 0.66 | 0.64
COc1ccc(-c2nnc3c4cc5c(cc4n(Cc4ccccc4OC)cc2-3)OCCO5)cc1 | 1 | -0.93
COc1ccc(OC)c(C2N=C(Nc3ccc(F)cc3)Nc3nc(C)cc(=O)n32)c1 (stereo not drawn) | 0.71 | -0.58
COc1ccc(Oc2coc3cc(OC(=O)c4ccc(Br)cc4)ccc3c2=O)cc1 | -1.05 | 0.55
Cc1cccc(S(=O)(=O)Nc2ccc(-c3ccc(S(C)(=O)=O)nn3)cc2)c1 | 0.2 | /
CC1Cc2cc(S(=O)(=O)N3CCN(C4CCCCC4)CC3)ccc2N1C(=O)C1CC1 (stereo not drawn) | -0.62 | /
COCCCNc1ncnc2sc3c(c12)CCC(C)C3 (stereo not drawn) | 0.43 | 0.76
C1CCC(c2nc3n(n2)C2(CCCCC2)[C@@H]2CCCC[C@@H]2N3)CC1 | 2.36 | -1.01
Cc1ccc(-c2ccc(=O)[nH]n2)cc1S(=O)(=O)Nc1ccc(F)c(F)c1 | 1.07 | 1.83
COc1ccc(-c2nc(CNS(=O)(=O)c3ccc4c(c3)OCCO4)cs2)cc1 | 0.56 | -2.51
Cc1cc(NC(=O)Cn2cnc3c(cnn3C)c2=O)n[nH]1 | -1.7 | -0.57
CCC(C)(C(=O)NC1CCCCC1)N(CC1CCCO1)C(=O)c1cnccn1 (stereo not drawn) | / | -0.4
O=C(Nc1ncc(Br)s1)C(Cc1ccccc1)n1cccc1 (stereo not drawn) | 0.12 | -0.89
O=C(c1cc(-c2ccco2)[nH]n1)N1CCN(c2ccccc2F)CC1 | 0.63 | /
O=C(Nc1cc(C(F)(F)F)ccc1Cl)C(=S)NC1CCCCC1 | / | 0.57
CC(=O)Nc1ccc(OCC(O)CNC(C)C)cc1 (stereo not drawn) | 0.39 | /
COc1ccc(C(=O)OCc2cc(=O)n3oc(C)cc3n2)cc1 | -0.79 | /
O=C(O)CCc1ccc(-c2ccc(Br)cc2)n1Cc1ccco1 | -1.8 | -0.91
COc1ccc(-c2cc(=O)c3c(OC)cc(OC)c(-c4cc(-c5cc(=O)c6c(OC)cc(OC)cc6o5)ccc4OC)c3o2)cc1 | 2.01 | /
CCN(CC)c1ccc(NS(=O)(=O)c2ccc(-c3ccc(=O)[nH]n3)o2)c(C)c1 | -3.26 | /
CCc1nc(SCC(N)=O)n[nH]1 | -0.49 | -1.27
O=C(CSc1cn(CCNC(=O)c2cccs2)c2ccccc12)Nc1ccccc1 | 0.07 | -0.94
CCc1ccc(-c2nc3c(C#N)c[nH]n3c2NC2CCC(C)CC2)cc1 (stereo not drawn) | -1.56 | -0.36
COC(=O)c1ccc(COc2cc(C)cc(C)c2)o1 | 1.1 | 1.11
COc1cccc(-c2nc3c(c(=O)[nH]2)Cc2c(ccc4ccccc24)O3)c1 | 1.79 | -1.82
O=c1oc2ccccc2cc1C1=Nn2c(nnc2-c2ccccc2Br)SC1 | / | 0.41
O=C1CC2(CCCC2)C(=O)N1CCCNc1ncc(C(F)(F)F)cc1Cl | / | 1.21
O=[N+]([O-])c1ccc(OCCCCCCOc2ccc([N+](=O)[O-])cc2)cc1 | / | -0.24
CCn1cc(S(=O)(=O)c2cccc(Cl)c2)c(=O)c2cc(F)c(N3CCN(C)CC3)cc21 | 1.43 | /

Next section, starting with the last 5 of the part before.
canonical_smiles | HIV TAR-Tat | CDC25B CDK2 inh
COc1cccc(-c2nc3c(c(=O)[nH]2)Cc2c(ccc4ccccc24)O3)c1 | 1.79 | -1.82
O=c1oc2ccccc2cc1C1=Nn2c(nnc2-c2ccccc2Br)SC1 | / | 0.41
O=C1CC2(CCCC2)C(=O)N1CCCNc1ncc(C(F)(F)F)cc1Cl | / | 1.21
O=[N+]([O-])c1ccc(OCCCCCCOc2ccc([N+](=O)[O-])cc2)cc1 | / | -0.24
CCn1cc(S(=O)(=O)c2cccc(Cl)c2)c(=O)c2cc(F)c(N3CCN(C)CC3)cc21 | 1.43 | /
Cc1ccc2n1CCN(C(=O)Nc1ccc(F)cc1)C2C(C)C (stereo not drawn) | 0.53 | /
CC(=O)Nc1ccc(S(=O)(=O)Nc2ccc3c(c2)CC(=O)N3C)cc1 | 0.69 | /
C=Cc1ccc(CN2C(=O)N(c3ccc(OC)c(OC)c3)S(=O)(=O)c3ccccc32)cc1 | 1.35 | /
O=C(NCCCN1CCCC1)C1CCCN1c1nnc(N2CCCC2=O)s1 (stereo not drawn) | 0.67 | /
CN1C(C(=O)NC2CCCC2)=CC(c2ccc3c(c2)OCO3)=NS1(=O)=O | 3.23 | 0.04
O=C(CS(=O)(=O)c1ccc(Br)cc1)c1ccccc1 | 1.9 | -2.58
COc1ccc(-c2noc(-c3ccccc3Cl)n2)cc1 | 2.13 | -0.41
CCOc1c(N(C)Cc2ccco2)c(=O)c1=O | 0.54 | /
CCOc1ccc(-n2c(C)c(C)c3c2ncn2nc(-c4ccc(N(C)C)cc4)nc32)cc1 | 0.77 | -1.11
CCN(CC)CCCNC(=O)Cn1nc(C)n2cccc2c1=O | 0.98 | -2.39
COCCCNC(=O)c1cnc2sc3c(n2c1=O)CCCC3 | 1.52 | /
CCCCc1ccc(NS(=O)(=O)c2cc3c4c(c2)C(C)C(=O)N4CCC3)cc1 (stereo not drawn) | 0.45 | /
Cc1ccc2cc3c(nc2c1)N(C(=O)c1cccs1)CC3 | -0.82 | -1.36
CCc1nc(SCc2ccccc2)n[nH]1 | 1.46 | 0.02
O=C1CN(CC(=O)N2CCN(c3ccc(F)cc3)CC2)c2ccccc2O1 | -0.02 | 1.35
CC1CC(C)CN(S(=O)(=O)N2CCCC(C(=O)NCCN3CCCC3)C2)C1 (stereo not drawn) | 0.96 | /
O=C1CC(c2ccc(Br)cc2)N=C(NC(=O)c2ccc3c(c2)OCO3)N1 (stereo not drawn) | 0.22 | /
CC(Nc1nc(N2CCOCC2)nc2ccccc12)C12CC3CC(CC(C3)C1)C2 (stereo not drawn) | / | 0.23
Cc1cc(C)c2c(=O)c3c(oc2c1)C(=O)N(Cc1ccco1)C3c1ccccc1F (stereo not drawn) | 1.17 | -1.08
CCCc1c(C(=O)NNc2ccc(C)cc2)cnn1-c1ccccc1 | / | 1.03
CC1CCCCN1CCNC(=O)C1CCN(C(=O)c2cc3sccc3n2C)CC1 (stereo not drawn) | -0.15 | -1.93
COC(=O)/C(C#N)=C\C=C\c1ccccc1 | / | -0.8
COc1cccc(-n2c(-c3ccco3)nc3c(cnn3-c3ccc(Cl)cc3)c2=O)c1 | 0.17 | /
COc1ccc(S(=O)(=O)Nc2c(C)nc3nc[nH]n3c2=O)cc1Cl | 1.24 | -0.78
CCN1CCN(C(=O)C2CC3CCCN3C23C(=O)N(C)c2ccccc23)CC1 (stereo not drawn) | -4.19 | /
Cc1nc2nc(N3C(=O)CCC3=O)[nH]n2c(=O)c1Cc1ccccc1 | 2.39 | -2.34
O=C1CCCN=C(Nc2ccc(F)c(Cl)c2)S1 | / | -1.15
CCC1CN(C(=O)Nc2ccccc2F)c2ccccc2O1 (stereo not drawn) | 1.85 | /
c1cc2c(cc1Nc1c3c(nc4nncn14)CCC3)OCCO2 | 0.2 | -1.18
Cc1ccc(OCc2nc(-c3ccccn3)no2)c(C)c1 | -0.18 | -1.24
CCOc1nc(-c2cccc(OC)c2)ccc1-c1noc(-c2ccncc2)n1 | -2.4 | -0.76
COCCCNc1nc2c(c(=O)n(C)c(=O)n2C)n1C | / | 0.12
COC(=O)C1=C(N)CCCC1 | / | -0.76
Nc1nn(-c2ccc(Cl)cc2)nc1C(=O)c1ccccc1 | / | -1.38
CCOC(=O)/C(C#N)=C/Nc1cccnc1Oc1ccc(C)c2c1CCC2 | / | -1.43
COc1ccc(NC(=O)CSc2nc3ncccc3[nH]2)c(OC)c1 | 0.12 | 1.51
CC12CCCCC1(O)N(O)C(C(=O)c1ccccc1)=N2 (stereo not drawn) | / | -0.09
Cc1cc(NC(=O)c2ccc(-c3noc(C4CC4)n3)cc2)no1 | 0.46 | /
CN(CCCNS(=O)(=O)c1csc(C(N)=O)c1)C1CCCCC1 | 0.76 | /
O=C(Cc1scnc1-c1cccs1)N1CCN(c2ccccn2)CC1 | -0.31 | -1.61
Cc1cc(=O)n2nc(N3CCCC(C(=O)NC4CC4)C3)sc2n1 (stereo not drawn) | 0.77 | -0.16
N#Cc1ccc(C(=O)Nc2ccc3oc(-c4cccnc4)nc3c2)c(F)c1 | / | 1.07
COc1ccccc1N1CCN(c2cnnc3c(Cl)cccc23)CC1 | 1.69 | /
Cc1nn2c(=O)cc(CSc3ccccc3N)nc2s1 | -0.07 | /
CC(=O)Nc1nc2ccc(NC(=O)c3[nH]nc4c3COc3ccccc3-4)cc2s1 | 6.76 | /
O=C(CSc1ccc2nnc(-c3ccc(F)cc3)n2n1)Nc1ccc(Cl)cc1 | / | -7.12
O=C(COc1ccc(Br)c2ccccc12)N=Nc1c(O)[nH]c2c(Br)cc(Br)cc12 | / | -1.43
CCOc1ccc(OCC(=O)Nc2scc(-c3cccs3)c2C(=O)OC)cc1 | 0.45 | -0.63
CCOC(=O)c1nc(NCCOC)c2c(C)noc2n1 | 1.56 | /
CCOc1ccc(C2c3c(-c4cc(C)ccc4O)n[nH]c3C(=O)N2CCOC)cc1OCC (stereo not drawn) | 1.38 | -0.38
Cc1cccc(CN2C(C(C)C)Nc3cc(C)ccc3S2(=O)=O)c1 (stereo not drawn) | 0.99 | /
COc1ccc(OC)c(N(C)c2c(-c3ccc(C)cc3)c(=O)c2=O)c1 | -4.46 | /
COc1ccc(-c2csc(COC(=O)C(C)(C)C)n2)cc1 | / | -0.32
O=C(CC(C(=O)O)C1CCCO1)NC1CCCCC1 (stereo not drawn) | -0.26 | 0.27
Brc1ccccc1-c1nnc2sc(-c3cnccn3)nn12 | 1.51 | -1.75
COCCN1C(=O)c2cc3sccc3n2CC1(C)C(=O)NC1CCCCC1C (stereo not drawn) | 1.36 | -1.8
O=C(C1CCCCC1)N1CCN(C(=O)C2CCCCC2)CC1 | / | -2.24
Cn1c(Sc2ncnc(Sc3nnc(C(F)(F)F)n3C)c2[N+](=O)[O-])nnc1C(F)(F)F | / | -0.34
COCCOC(=O)C1=C(C)Nc2nc3ccccc3n2C1c1cccc(F)c1 (stereo not drawn) | 1.72 | -1.51
CCOC(=O)C1=C(O)C(=O)N(Cc2ccccc2)C1 | 1.33 | -0.3

New compounds follow
canonical_smiles | HIV TAR-Tat | CDC25B CDK2 inh
O=C(NCC1CC1)Nc1cccs1 | / | -2.23
COc1ccc(C2Nc3ccc(Br)cc3C(c3ccccc3)N2CC(=O)O)cc1 (stereo not drawn) | 2.67 | -1.67
COc1ccc(-n2ccnc2SCC(=O)Nc2ccc3c(c2)OCO3)c(OC)c1 | 1.76 | /
Cc1ccccc1N1CC23C=CC(O2)C(C(=O)OC(C)C)C3C1=O (stereo not drawn) | 1.49 | 0.63
CCOC(=O)C1=C(C)NC2=C(C(=O)c3ccccc32)C1c1ccc(CC)cc1 (stereo not drawn) | -3.67 | 0.2
O=C(O)/C=C/C(=O)Nc1nccs1 | / | -1.34
CC(C)N(CCS(=O)(=O)N1CCNCC1)S(=O)(=O)c1ccc(F)cc1 | 1.96 | /
FC(F)(F)c1cccc(-c2noc(-c3ccc(-c4cccs4)s3)n2)c1 | / | -0.7
CC(=O)N1CC(C)Sc2ccc(S(=O)(=O)Nc3ccc(F)cc3)cc21 (stereo not drawn) | 1.72 | /
COc1ccc(CCN2COc3c(cc(Cl)c4cccnc34)C2)cc1OC | / | -6.21
O=C(Cn1ncc2c1-c1ccccc1OC2)NCCCN1CCOCC1 | 0.04 | -1.42
CCCCNC(=O)c1c(C)[nH]c(C(=O)OCC)c1C | / | -1.67
CN(C)S(=O)(=O)c1ccc2c(c1)N(CC(=O)N1CCN(C(=O)c3ccco3)CC1)CCS2 | -1.87 | /
COc1ccc(-c2noc(C3CCCN(S(=O)(=O)c4ccc(C)c(C)c4)C3)n2)cc1OC (stereo not drawn) | 1.35 | /
O=C(Nc1sc2c(c1C(=O)NCc1ccco1)CCC2)c1cc(=O)c2cc(Cl)ccc2o1 | 0.18 | -0.11

Given with two lines to a compound: 4 of the compounds above.
Sequence of screens – HIV TAR-Tat	CDC25B CDK2 inh
- COc1ccc(-n2ccnc2SCC(=O)Nc2ccc3c(c2)OCO3)c(OC)c1
  1.76	/
- COc1ccc(CCN2COc3c(cc(Cl)c4cccnc34)C2)cc1OC
  /	-6.21
- O=C(O)/C=C/C(=O)Nc1nccs1
  /	-1.34
- CC(C)N(CCS(=O)(=O)N1CCNCC1)S(=O)(=O)c1ccc(F)cc1
  1.96	/

Following part:
canonical_smiles | HIV TAR-Tat | CDC25B CDK2 inh
CCc1ccc2c(O)c3c(cc2c1C(=O)OC)C(=O)c1c(O)ccc(O)c1C3=O | 0.83 | /
COc1ccc2cc3c(N)nn(C(=O)CN4CCOCC4)c3nc2c1 | / | -1.48
O=S(=O)(c1ccc(Cl)cc1)N1CCCC1c1cccs1 (stereo not drawn) | -1 | -1.53
Cc1ccc(-n2ccnc(SCc3ccc(F)cc3Cl)c2=O)cc1C | 0.93 | /
Cc1ccccc1NCC(O)Cn1c2ccccc2c2ccccc21 (stereo not drawn) | / | 4.04
CCOC(=O)C(C(=O)NCCNC(=O)C(C(=O)OCC)C1CCCCC1)C1CCCCC1 (stereo not drawn) | / | -1.92
COc1cc(OC)cc(C(=O)Nc2nnc3n2CCCS3)c1 | 1.99 | /
Cc1sc(C(=O)Nc2ccccc2)c2c1C(=O)NC(C)(c1cccs1)N2 (stereo not drawn) | / | -0.61
Oc1c(CN2CCOCC2)cc(COCc2ccccc2)c2cccnc12 | / | 0.82
